# DUX4 inh = DUX4-mediated transcription inhibition. hit rate 0.8% among 37,000. activity change, negative = inhibition, % (no concentration beside the values). 293T-iDUX4 ZSCAN4-Gaussia luciferase reporter, 24 h; stronger effect = lower value;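 active = -10% or lower and over 25 points stronger than a control reporter; inconclusive = -10% or lower with a smaller gap; inactive = above -10%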;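 also: 0% = median of neutral control wells and -100% = median of positive control wells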
# DUX4 inh difference = also measured in DUX4 inh; calls as there; Gaussia minus Italica difference, %; measured here: selective DUX4 reporter inhibition;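 worked out from the two reporters; negative = selective loss of the DUX4 reporter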
# DUX4 inh control = further read-out of DUX4 inh, marked with its call; activity change, negative = inhibition, %; measured here: Italica tet-on control reporter;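 0 = neutral control and -100 = positive control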
# Starred values were filed as active, the others as inactive; u = inconclusive; x = not tested or not shown; & = joins results of further samples.
SMILES,DUX4 inh,DUX4 inh difference,DUX4 inh control
CCC(=O)N1CCC2(CC1)CN(C(=O)CC)[C@@H](CO)c1[nH]c3cc(OC)ccc3c12,18,-10,28
Cc1noc(C)c1NC(=O)N(C)C[C@H]1Oc2cc(C#CCN(C)C)ccc2S(=O)(=O)N([C@H](C)CO)C[C@@H]1C,4,0,3.6
CO[C@H]1CN(C)C(=O)c2ccc(NC(=O)C3CCCC3)cc2OC[C@@H](C)N(Cc2cocn2)C[C@H]1C,0,1,-1.0
CCC(=O)N1C[C@H](C)[C@H](OC)CN(C)C(=O)c2cc(NC(=O)c3cc(C)on3)ccc2OC[C@@H]1C,-5,-3,-2.1
CO[C@@H]1CN(C)C(=O)c2cc(NS(=O)(=O)CC(F)(F)F)ccc2OC[C@H](C)N(C)C[C@H]1C,6,4,1.1
O=C(CCN1CCCCC1)NCC[C@H]1CC[C@H](NC(=O)C2CCOCC2)[C@@H](CO)O1,13,4,9.9
CO[C@H]1CC[C@H]2CCOc3ccc(C#N)cc3C(=O)N(C)C[C@H](OC)[C@H](C)C(=O)N(C)C[C@@H]1O2,-2,-4,1.3
COC(=O)N(C)C[C@@H]1OCc2ccccc2-c2ccccc2C(=O)N([C@H](C)CO)C[C@H]1C,14,12,2.7
COc1ccc(-c2cn(CC[C@H]3CC[C@H](NC(=O)c4cnccn4)[C@@H](CO)O3)nn2)cc1,0,1,-1.0
C[C@H]1CN([C@@H](C)CO)C(=O)c2ccccc2-c2ccccc2CO[C@H]1CN(C)S(=O)(=O)c1ccc(C#N)cc1,u,x,x
O=C(C[C@H]1CC[C@H]2[C@@H](COC[C@H](O)CN2C(=O)Nc2ccc(F)cc2)O1)NCCc1ccncc1,6,-1,6.7
N#C[C@@H]1[C@@H](c2ccccc2C2=CCCCC2)[C@H](CO)N1C(=O)c1ccccn1,-4,6,-10
O=C(Nc1ccccc1)N1CCCCN2[C@@H](CO)[C@@H](c3ccc(Br)cc3)[C@@H]2C1,-4,-6,2.3
Cc1noc(C)c1NC(=O)Nc1cccc2c1O[C@@H](CN(C)Cc1ccc(C(=O)Nc3ccccc3N)cc1)[C@H](C)CN([C@H](C)CO)C2=O,-4,-13,8.3
C[C@@H]1CN([C@H](C)CO)C(=O)c2c(c3ccccc3n2C)-c2ccccc2CO[C@H]1CN(C)C(=O)N[C@H](C)c1ccccc1,u,x,x
O=C(CC1CC1)N1CC(=O)N2[C@H](C1)[C@@H](c1ccc(-c3cccnc3)cc1)[C@@H]2CO,4,3,1.8
COCC(=O)Nc1ccc2c(c1)[C@H]1C[C@@H](CC(=O)O)O[C@@H](CO)[C@H]1O2,6,-8,14
CO[C@@H]1CC[C@H]2CCN(C)C(=O)C[C@@H](c3ccccc3)CN(C)C(=O)c3cc(C#N)ccc3OC[C@H]1O2,-1,-1,0.6
C[C@H](CO)N1C[C@H](C)[C@H](CN(C)C(=O)c2ccncc2)OCc2ccccc2-c2c(n(C)c3ccccc23)C1=O,2,3,-0.7
C[C@@H]1CCCCO[C@@H](CN(C)C(=O)Nc2ccc(C(F)(F)F)cc2)[C@H](C)CN([C@H](C)CO)C(=O)c2cc(NS(=O)(=O)c3ccc(Cl)cc3)ccc2O1,4,6,-1.6
CC=Cc1ccc2n(c1=O)C[C@H]1[C@H](CO)[C@@H](C(=O)NCc3ccccn3)[C@@H]2N1C (mixture of isomers),1,-9,9.5
Cc1ccccc1-c1ccc([C@H]2[C@@H](CO)N3CCCCN(S(=O)(=O)Cc4ccccc4)C[C@@H]23)cc1,u,x,x
CN(C)CC(=O)N[C@@H]1C=C[C@@H](CC(=O)NCc2ccc(Cl)cc2)O[C@H]1CO,3,-6,8.6
CN(C)C(=O)c1cccc(-c2ccc(C3[C@H]4CNC[C@@H]3N4Cc3cc(-c4ccccc4)on3)cc2)c1 (stereo partly specified),6&14,3&0,3.1&14
CC(C)(C)[S@](=O)N1Cc2cc(C(=O)NCc3ccc4c(c3)OCO4)nc(-c3cccc(-c4cccnc4)c3)c2[C@@H]1CCO,2,1,1.0

# Three entries from above, with the structure last.
DUX4 inh	DUX4 inh difference	DUX4 inh control	Compound
-5	-3	-2.1	CCC(=O)N1C[C@H](C)[C@H](OC)CN(C)C(=O)c2cc(NC(=O)c3cc(C)on3)ccc2OC[C@@H]1C
6	-8	14	COCC(=O)Nc1ccc2c(c1)[C@H]1C[C@@H](CC(=O)O)O[C@@H](CO)[C@H]1O2
6	-1	6.7	O=C(C[C@H]1CC[C@H]2[C@@H](COC[C@H](O)CN2C(=O)Nc2ccc(F)cc2)O1)NCCc1ccncc1

# Following part.
SMILES,DUX4 inh,DUX4 inh difference,DUX4 inh control
C[C@H]1CN([C@@H](C)CO)C(=O)c2cc(-c3ccc(C#N)cc3)cnc2O[C@H]1CN(C)C(=O)CC1CC1,1,1,0.0
Cc1noc(C)c1S(=O)(=O)Nc1ccc2c(c1)C(=O)N([C@@H](C)CO)C[C@@H](C)[C@@H](CN(C)Cc1ccc(C(=O)Nc3ccccc3N)cc1)O2,-2,2,-3.9
COc1ccc(CN2C[C@@H](O)COC[C@@H]3O[C@H](CC(=O)NCc4ccccc4Cl)CC[C@H]32)cc1,-6,-1,-5.7
CC(=O)N1[C@H](C(=O)NCc2ccccc2Cl)[C@@H](CO)[C@@H]2Cn3c(ccc(-c4cncnc4)c3=O)[C@@H]21,3,7,-3.8
Cn1cnc(CCNC(=O)[C@H]2[C@H](CO)[C@H]3Cn4c(cccc4=O)[C@H]3N2C(=O)Nc2ccccc2)c1,-5,-9,3.9
COc1ccc2c3c(n(C)c2c1)[C@H](CO)N(Cc1ccccc1)CC31CCN(C(=O)c2ccccc2F)CC1,u,x,x
COC(=O)C[C@H]1C[C@H]2c3cc(NC(=O)NC4CCCCC4)ccc3O[C@H]2[C@@H](CO)O1,-4,-6,1.6
CN(C)CC(=O)Nc1ccc2c(c1)[C@@H]1C[C@H](CC(=O)NCc3ccncc3)O[C@@H](CO)[C@@H]1O2,6,5,0.9
CCCNC(=O)C[C@@H]1CC[C@H]2[C@@H](COC[C@H](O)CN2C(=O)c2cccnc2)O1,10,9,1.4
COCC(=O)N1CC2(C1)CN(S(C)(=O)=O)[C@@H](CO)c1[nH]c3cc(OC)ccc3c12,18,-11,29
C/C=C/c1ccc([C@@H]2[C@@H](CN(C(=O)COC)C(C)C)N(C(C)=O)[C@H]2CO)cc1,-3,-3,0.4
C[C@@H]1CN([C@@H](C)CO)C(=O)c2c(c3ccccc3n2C)-c2ccccc2CO[C@@H]1CN(C)S(=O)(=O)c1cccc(C#N)c1,-24*,-30*,5.3*
COc1ccc(CN2C[C@@H](O)COC[C@@H]3O[C@@H](CC(=O)NCCN4CCCC4)CC[C@H]32)cc1,7,-4,11
CN(C)CC#Cc1ccc([C@@H]2[C@@H](CO)N3CCCCN(C(=O)C4CCC4)C[C@@H]23)cc1,12,0,12
CN(C)CC(=O)N1CCCCN2[C@H](CO)[C@@H](c3ccc(-c4cncnc4)cc3)[C@H]2C1,5,13,-8.3
CNC[C@@H]1Oc2ccc(NC(=O)Nc3ccc(F)cc3)cc2C(=O)N([C@H](C)CO)C[C@@H]1C,-1,1,-1.9
O=C(Nc1ccc2c(c1)[C@H]1C[C@@H](CC(=O)N3CCc4ccccc4C3)O[C@H](CO)[C@H]1O2)NC1CCCC1,-9,-1,-7.3
CCCNC(=O)N1[C@H](CO)[C@H](c2ccc(C3=CCCC3)cc2)[C@H]1CNC(=O)CC,2,-1,2.9
COc1ccc(S(=O)(=O)N(C)C[C@@H]2Oc3c(NC(=O)Nc4c(C)noc4C)cccc3C(=O)N([C@@H](C)CO)C[C@@H]2C)cc1,-4,-4,0.3
O=C(C[C@H]1C[C@H]2c3cc(NC(=O)NC4CCCC4)ccc3O[C@H]2[C@@H](CO)O1)NCc1ccccc1F,1,7,-5.8
CCCNC(=O)C[C@@H]1CC[C@H]2[C@H](COc3ccc(NC(=O)c4cc(F)cc(F)c4)cc3C(=O)N2C)O1,1,-2,3.4
CCCC#Cc1ccc([C@@H]2[C@H](CO)N3C(=O)CN(C(=O)NCCC)C[C@@H]23)cc1,5,6,-0.9
COC(=O)C[C@H]1C[C@H]2c3cc(NC(=O)CC4CC4)ccc3O[C@H]2[C@@H](CO)O1,7,5,1.6
C[C@@H]1CN([C@H](C)CO)S(=O)(=O)c2ccc(-c3ccncc3)cc2O[C@H]1CN(C)C(=O)c1ccc2c(c1)OCO2,4,3,1.1
O=C(NC1CCCC1)N1CC2(C1)[C@@H](c1ccccc1)[C@@H](CO)N2S(=O)(=O)Cc1ccccc1,9,9,-0.9
SMILES,DUX4 inh,DUX4 inh difference,DUX4 inh control
Cn1cnc(S(=O)(=O)N2CC[C@@H]3[C@H]2c2cc(-c4cccc(F)c4)ccc2N[C@@H]3CO)c1,9,7,2.3
CS(=O)(=O)N1CC(=O)N2[C@@H](CO)[C@H](c3ccc(C#CCC4CCCC4)cc3)[C@@H]2C1,12,-1,13
C[C@@H]1CN([C@@H](C)CO)C(=O)c2cc(NC(=O)CCC(F)(F)F)ccc2O[C@H]1CN(C)Cc1ccc(-c2ccccc2)cc1,-1,-2,1.0
O=S(=O)(c1ccccc1)N1CCCCN2[C@H](C1)[C@@H](c1ccc(C#CC3CCCC3)cc1)[C@@H]2CO,3,-3,6.3
COc1cccc(S(=O)(=O)Nc2ccc3c(c2)[C@@H]2C[C@@H](CC(=O)NCc4ccc(Cl)cc4)O[C@@H](CO)[C@@H]2O3)c1,u,x,x
O=C(C[C@H]1CC[C@H](NC(=O)C2CC2)[C@@H](CO)O1)Nc1ccccc1,1,-5,6.6
C[C@H]1CC=CC[C@@H](c2cccc(Cl)c2)NC(=O)[C@H](C)N(C)C(=O)c2ccccc2O1 (mixture of isomers),u,x,x
COc1ccccc1-c1ccc([C@@H]2[C@H]3CN(C(=O)NC4CCCC4)CCCCN3[C@H]2CO)cc1,-1,-1,0.3
C[C@@H]1CCCCO[C@H](CN(C)C(=O)CCC(F)(F)F)[C@H](C)CN([C@@H](C)CO)C(=O)c2cc(NS(=O)(=O)c3cccs3)ccc2O1,3,3,0.0
C[C@@H]1CCCCO[C@@H](CN(C)S(C)(=O)=O)[C@H](C)CN([C@@H](C)CO)C(=O)c2cc(NC(=O)NC3CCCCC3)ccc2O1,-1,1,-2.4
C[C@@H]1CN([C@@H](C)CO)C(=O)CCCn2nncc2CO[C@H]1CN(C)C(=O)CCCN(C)C,5,0,4.9
C[C@H]1CN([C@@H](C)CO)S(=O)(=O)c2ccc(C#CC3CC3)cc2O[C@@H]1CN(C)C(=O)c1cccc(F)c1,-1,2,-2.3
C[C@@H]1CN([C@@H](C)CO)C(=O)c2c(c3ccccc3n2C)-c2ccccc2CO[C@H]1CN(C)Cc1cccnc1,8,8,-0.2
COc1ccc(NC(=O)Nc2ccc3c(c2)C(=O)N([C@H](C)CO)C[C@H](C)[C@@H](CN(C)S(=O)(=O)c2cn(C)cn2)O3)cc1,-2,-2,-0.5
O=C(c1ccccc1F)N1C[C@@H]2[C@H](c3ccccc31)[C@H](CO)N2C(=O)C1CCCC1,2,-2,3.7
CCCN1C[C@@H](C)[C@@H](OC)CN(C)C(=O)c2cc(NC(=O)c3cccc(OC)c3)ccc2OC[C@@H]1C,-3,-2,-0.5
CC(=O)N1[C@@H]2c3ccc(C4=CCCCC4)c(=O)n3C[C@H]1[C@H](CO)[C@H]2C(=O)NCc1cc(F)cc(F)c1,-3,-4,1.2
COc1ccc(C[C@@H]2CCc3cnnn3COC[C@H](CC(C)C)NC2=O)cc1,1,5,-4.3
COc1cccc(S(=O)(=O)N2CC[C@@H]3[C@@H](CO)Nc4ccc(C#Cc5cccnc5)cc4[C@@H]32)c1,u,x,x
COc1cccc(C#Cc2ccc([C@H]3[C@H](CO)N4C(=O)CN(C(=O)c5ccccc5)C[C@@H]34)cc2)c1,u,x,x
OC[C@@H]1[C@H](c2ccc(C#Cc3ccccc3)cc2)[C@H]2CN(CC3CCOCC3)CCCCN12,u,x,x
CCNC(=O)C[C@@H]1CC[C@H]2[C@@H](COc3ccc(NC(=O)C4CCCCC4)cc3C(=O)N2C)O1,-1,-2,1.1
CCCNC(=O)C[C@H]1C[C@@H]2c3cc(NS(=O)(=O)c4ccc(F)cc4)ccc3O[C@@H]2[C@@H](CO)O1,7,4,2.8

# As a short view, part of the list above.
SMILES,DUX4 inh,DUX4 inh difference,DUX4 inh control
COc1ccc(CN2C[C@@H](O)COC[C@@H]3O[C@@H](CC(=O)NCCN4CCCC4)CC[C@H]32)cc1,7,-4,11
CN(C)CC#Cc1ccc([C@@H]2[C@@H](CO)N3CCCCN(C(=O)C4CCC4)C[C@@H]23)cc1,12,0,12
CN(C)CC(=O)N1CCCCN2[C@H](CO)[C@@H](c3ccc(-c4cncnc4)cc3)[C@H]2C1,5,13,-8.3
CNC[C@@H]1Oc2ccc(NC(=O)Nc3ccc(F)cc3)cc2C(=O)N([C@H](C)CO)C[C@@H]1C,-1,1,-1.9

# Part of the list above, with bars between the fields:
SMILES | DUX4 inh | DUX4 inh difference | DUX4 inh control
C[C@H]1CC=CC[C@@H](c2cccc(Cl)c2)NC(=O)[C@H](C)N(C)C(=O)c2ccccc2O1 (mixture of isomers) | u | x | x
COc1ccccc1-c1ccc([C@@H]2[C@H]3CN(C(=O)NC4CCCC4)CCCCN3[C@H]2CO)cc1 | -1 | -1 | 0.3
COc1cccc(C#Cc2ccc([C@H]3[C@H](CO)N4C(=O)CN(C(=O)c5ccccc5)C[C@@H]34)cc2)c1 | u | x | x
CS(=O)(=O)N1CC(=O)N2[C@@H](CO)[C@H](c3ccc(C#CCC4CCCC4)cc3)[C@@H]2C1 | 12 | -1 | 13

# These rows are one share of the data. The share of hits here may be higher or lower than overall.
